Vaccinia Venus – inhibitors of vaccinia virus (Venus reporter). Vaccinia virus Venus reporter expression, fluorescence. Potency, µM (top dose mostly 36.5 µM), without a hit: at the top dose activity change, negative = inhibition, hits mostly inhibitors. 330,000 compounds, 0.46% hits. AID 720580; active means well fitted inhibition curve with a large enough effect; inconclusive means small, poorly fitted or top-dose-only effect; inactive means no such curve, though single readings can be large or run the other way; tested in A549 cells; also: nearly all actives have a fitted effect of over 30% in size; inactives centre near -10
VACV mCherry inh – inhibitors of vaccinia virus infection (mCherry reporter signal); Vaccinia virus mCherry reporter infection, fluorescence; about a quarter of the inactives have no number; Potency, µM (doses to about 36.5 µM), for the others: top-dose activity change, negative = inhibition, most hits filed as inhibitors; 310,000 compounds, 0.63% hits; AID 720579; active = well fitted inhibition curve with a large enough effect; inconclusive = small, poorly fitted or top-dose-only effect; inactive = no such curve, though single readings can be large or run the other way; tested in A549 cells; also: nearly all actives have a fitted effect of over 35% in size; inactives centre near -10
Starred values were filed as active, the others as inactive; i = inactive; u = inconclusive; x = not tested or not shown; & = joins results of further samples; [ ] = dose if it differs, or a comment. % is scaled to controls: 0 for no effect and ±100 for the full control effect; potency is read from the fitted curve at half-maximal effect.

SMILES | Vaccinia Venus | VACV mCherry inh
Cc1ccc(S(=O)(=O)N2CCC(=O)N(C(COCc3cccc(C)c3)C(C)C)CC2)cc1 (configuration not stated) | -21% | -6%
Nc1ccccc1SC(CC(=O)c1ccccc1)c1cccc([N+](=O)[O-])c1 (configuration not stated) | -12% | -28%
O=C(NCc1nnc(SC/C=C/c2ccccc2)o1)c1ccco1 | -5% | -13%
O=C(Cc1ccc(S(=O)(=O)N2CCOCC2)s1)NC1CCCCC1 | -11% | -14%
CC1(NC(=O)c2ccccc2)CCN(CCCc2ccccc2)C1=O (configuration not stated) | -15% | i
Cc1ccccc1NC(=O)Nc1ccccc1C(=O)NCc1ccccc1 | -19% | x
Nc1cccc2nc3ccccc3cc12 | u | -17%
CC12CCC(C(=O)Nc3cccnc3)(CC1=O)C2(C)C (configuration not stated) | -3% | -12%
CC(C)(C)c1ccc(CC(=O)N2CCC2(C)C(=O)NS(=O)(=O)c2ccccc2)cc1 (configuration not stated) | 2% | 8%
CC[n+]1c(-c2ccc(C)cc2)csc1Nc1c(C)n(C)n(-c2ccccc2)c1=O | -27% | -24%
COc1ccc(NC(=O)CCCc2c[nH]c3ccccc23)cc1OC | 5% | i
Cc1ccc(SCCNC(=O)c2ccc([N+](=O)[O-])c(C)c2)cc1 | -11% | i
Cc1nn2c(-c3ccncc3)ccnc2c1Cl | 1% | -12%
COc1cc(CNc2ncnc3c2ncn3[C@H]2CN(Cc3ccncc3)C[C@@H](CO)O2)cc(OC)c1OC | -9% | i
OCCCCNCc1ccc(OCc2ccc(Cl)cc2Cl)cc1 | u | 28µM*
O=C(CC1Oc2ccccc2NC1=O)NCCCN1CCCC1=O (configuration not stated) | 4% | i
CC(=O)O[C@H]1CCC2C3CC[C@H]4[C@@H](O)[C@H](O)CC[C@]4(C)C3CC[C@@]21C (some centres not stated) | 2% | -21%
Cc1ccc(C)c(NC(=O)CCN2CC(C)OC(C)C2)c1 (configuration not stated) | -1% | x
COc1ccccc1CNC(=O)COC(=O)c1ccccc1SCC(=O)N1CCCC1 | -5% | -10%
COc1cc(C(C(=O)NC2CCCC2)N(Cc2ccccc2)C(=O)c2snc(C(N)=O)c2N)ccc1O (configuration not stated) | -17% | i
O=C(CSCc1ccccc1)N/N=C/c1cc2c(cc1Br)OCO2 | -16% | -21%
CCOc1cc(CNC(=O)c2ccc3nc(CCc4ccccc4)oc3c2)ccc1OC | -11% | -17%
COc1ccc([C@H]2C[C@H](n3cc(C4CC4)nn3)[C@@H](O)CN2C(=O)C2CCCCC2)cc1 | 3% | -3%
CCCCn1c(N)c(N(CC(C)C)C(=O)c2ccncc2)c(=O)[nH]c1=O | -13% | -15%
Cc1ccc(NC(=O)Cn2cc(S(=O)(=O)N3CCCC3)c(S(=O)(=O)N3CCCC3)c2)cc1C | -2% | 2%
Cc1ccc(-c2[nH]c3ccccc3c2C(C[N+](=O)[O-])c2ccco2)cc1 (configuration not stated) | u | x
Cc1nc2c(-c3ccc(F)cc3)c(C)nn2c(C)c1CCC(=O)N1CCN(c2ccccc2)CC1 | -5%&-29% | u
CN(C)C(=O)c1cccn(Cc2ccc(C(F)(F)F)cc2)c1=O | 5% | -1%
CC1CCN(c2ccc(S(=O)(=O)NC3=NCCCCC3)cc2[N+](=O)[O-])CC1 | -19% | -12%
COc1ccc(NC(=O)N(C)C[C@@H]2OCc3cnnn3CCCC(=O)N([C@H](C)CO)C[C@H]2C)cc1 | -15% | -7%
O=C(NCc1cccnc1)/C(=C/c1ccc(-c2cccc(Cl)c2)o1)S(=O)(=O)c1ccccc1 | -17% | -10%
O=C(N/N=C/c1ccncc1)c1cccc(S(=O)(=O)N2CCCC2)c1 | -11% | -14%
O=S(=O)(c1ccccc1F)N1CCN(c2nc(-c3cccs3)nc3ccccc23)CC1 | -18%&-12% | -6%&-17%
Cn1cc(CC(=O)NCc2ccc(F)cc2)c2ccccc21 | -3% | -11%
COc1ccc(C2/C=C\CC(NS(=O)(=O)c3ccc(C)cc3)CC(=O)N2Cc2ccccc2F)cc1 (configuration not stated) | u | -24%
COC(=O)[C@]12CCCCC=C1N(Cc1ccccc1)C(=O)[C@H](CC(=O)NCc1ccc(C)o1)C2 | 2% | 15%
CC(=O)c1sc(NC(C)c2ccccc2)nc1C (configuration not stated) | -7% | i
O=C(NCc1ccccc1)C(c1cccc2ccccc12)n1c(=O)c(-c2ccccc2)nc2ccccc21 (configuration not stated) | -19% | -15%
Cc1ccc(CSc2nc3ccc(NC(=O)CC(C)C)cc3s2)cc1 | -7% | i
CCCNC(=O)NC(=O)CSc1ccc(C)cc1C | -15% | -15%
COCC1CCN(C(=O)CCc2nnc(CCCCc3ccccc3)o2)CC1 | -1% | 0%
C=CCNc1nc2cc(-c3ccccc3C)sc2c(=O)n1C | -23% | 6%
Nc1ccccc1Nc1c(F)c(F)nc(F)c1Cl | -13% | u
Cc1c(N=Nc2c(-c3ccc([N+](=O)[O-])cc3)[nH]n(C(N)=S)c2=O)cccc1[N+](=O)[O-] | -14% | u
COc1ccc(CCNC(=O)c2nnn(-c3ccccc3OC)c2N)cc1OC | -15% | -16%
O=C(COc1cccc2cccnc12)NCc1cccs1 | -7% | -11%
CCOC(=O)C1CCN(CC(=O)N2CCCc3c2c(=O)oc2ccc(OCc4ccccc4)cc32)CC1 | -5% | -18%
Cc1ccccc1C(=O)NCCCNC(=O)c1ccco1 | -4% | -8%
CC1CN=C(NCCc2ccccc2)S1 (configuration not stated) | -7% | -15%
CCOC(=O)C(=O)C1(C(=O)OCC)Oc2cc(OC)cc(OC)c2C(=O)C1c1ccccc1 (configuration not stated) | 43%[activator] | 40%[activator]
COc1ccc(-c2nnc(SCC(=O)Nc3cccnc3Cl)n2C)cc1 | -22% | -25%
O=C(COc1ccccc1)Nc1ccc(Cl)c(-c2nc3ncccc3o2)c1 | -8% | -13%
N#Cc1ccccc1NS(=O)(=O)c1cc2c3c(c1)CCC(=O)N3CCC2 | -13% | -7%
O=C(NCN1CCN(CCO)CC1)c1cnccn1 | u | -11%
O=C(CCCn1ncn2c(cc3occc32)c1=O)N1CCc2ccccc2C1 | -21% | x
Cc1ccc(S(=O)(=O)N2CCC(=O)N(C(COCc3cccc(C)c3)Cc3ccccc3)CC2)cc1 (configuration not stated) | u | -22%
COc1ccc(Cl)cc1N1C(=O)CC(N2CCc3ccccc32)C1=O (configuration not stated) | 4% | -8%
CC(=O)N1CCCc2cc(S(=O)(=O)N3CCCC(C(=O)Nc4cccc(F)c4)C3)ccc21 (configuration not stated) | -25% | -22%
COC(=O)C1CCN(C(=O)COc2cc3sc(C)nc3c3sccc23)CC1 | -12% | -14%
O=C(Cc1nc2ccccc2[nH]1)NCc1ccco1 | -9% | x

A second format for some results above.
| molecule | Vaccinia Venus | VACV mCherry inh |
| --- | --- | --- |
| Cc1c(N=Nc2c(-c3ccc([N+](=O)[O-])cc3)[nH]n(C(N)=S)c2=O)cccc1[N+](=O)[O-] | -14% | u |
| O=C(Cc1nc2ccccc2[nH]1)NCc1ccco1 | -9% | x |

As a short view, some entries already given:
SMILES | Vaccinia Venus | VACV mCherry inh
CCCNC(=O)NC(=O)CSc1ccc(C)cc1C | -15% | -15%
COCC1CCN(C(=O)CCc2nnc(CCCCc3ccccc3)o2)CC1 | -1% | 0%
C=CCNc1nc2cc(-c3ccccc3C)sc2c(=O)n1C | -23% | 6%
Nc1ccccc1Nc1c(F)c(F)nc(F)c1Cl | -13% | u
Cc1c(N=Nc2c(-c3ccc([N+](=O)[O-])cc3)[nH]n(C(N)=S)c2=O)cccc1[N+](=O)[O-] | -14% | u
COc1ccc(CCNC(=O)c2nnn(-c3ccccc3OC)c2N)cc1OC | -15% | -16%
O=C(COc1cccc2cccnc12)NCc1cccs1 | -7% | -11%
CCOC(=O)C1CCN(CC(=O)N2CCCc3c2c(=O)oc2ccc(OCc4ccccc4)cc32)CC1 | -5% | -18%
Cc1ccccc1C(=O)NCCCNC(=O)c1ccco1 | -4% | -8%
CC1CN=C(NCCc2ccccc2)S1 (configuration not stated) | -7% | -15%
CCOC(=O)C(=O)C1(C(=O)OCC)Oc2cc(OC)cc(OC)c2C(=O)C1c1ccccc1 (configuration not stated) | 43%[activator] | 40%[activator]
COc1ccc(-c2nnc(SCC(=O)Nc3cccnc3Cl)n2C)cc1 | -22% | -25%
O=C(COc1ccccc1)Nc1ccc(Cl)c(-c2nc3ncccc3o2)c1 | -8% | -13%
N#Cc1ccccc1NS(=O)(=O)c1cc2c3c(c1)CCC(=O)N3CCC2 | -13% | -7%
O=C(NCN1CCN(CCO)CC1)c1cnccn1 | u | -11%
O=C(CCCn1ncn2c(cc3occc32)c1=O)N1CCc2ccccc2C1 | -21% | x
Cc1ccc(S(=O)(=O)N2CCC(=O)N(C(COCc3cccc(C)c3)Cc3ccccc3)CC2)cc1 (configuration not stated) | u | -22%
COc1ccc(Cl)cc1N1C(=O)CC(N2CCc3ccccc32)C1=O (configuration not stated) | 4% | -8%
CC(=O)N1CCCc2cc(S(=O)(=O)N3CCCC(C(=O)Nc4cccc(F)c4)C3)ccc21 (configuration not stated) | -25% | -22%
COC(=O)C1CCN(C(=O)COc2cc3sc(C)nc3c3sccc23)CC1 | -12% | -14%
O=C(Cc1nc2ccccc2[nH]1)NCc1ccco1 | -9% | x

Following part:
SMILES | Vaccinia Venus | VACV mCherry inh
Cc1cccc(Nc2ncnc(N)n2)c1 | 3% | 1%
CN(C)C(=O)N1CCN(C(=O)N2CCOCC2)CC1 | -9% | -15%
O=C(CCCN1C(=O)/C(=C/c2ccccc2Cl)SC1=S)NNC(=O)c1ccccc1 | u | u
O=S(=O)(c1ccc(Br)s1)N1CCN(c2ccnc3cc(Cl)ccc23)CC1 | -13% | -8%
CCC[N+](CC#Cc1ccccc1)(CCC)CC(=O)c1ccc(Cl)cc1 | -4% | i
O=C(NCCN1CCCCC1)Nc1ccc([N+](=O)[O-])cc1 | -16% | -8%
CC(C)n1cnc2cc(NC(=O)c3ccco3)ccc21 | -4% | 51%[activator]
COc1ccc(CNC(=O)CN2CCN(c3cccc(C)c3C)CC2)cc1 | -5% | -3%
CC(C(=O)NCc1ccc(Cl)cc1)n1ccc2cc(S(=O)(=O)N3CCCC3)ccc21 (configuration not stated) | -23% | -22%
CN(C(=O)CCS(=O)(=O)c1ccc2c(c1)oc(=O)n2C)C1CCCCC1 | -10% | -2%
O=C(CN1CCN(C(=O)c2ccccc2)CC1)NC(=O)NCCC1=CCCCC1 | -21% | -10%
CCNC(=S)N(CCc1c(C)[nH]c2ccc(C)cc12)Cc1ccco1 | u | u
CC(C)COC(=O)c1ccc(N2C(=O)c3ccccc3C2=O)cc1 | -6% | i
Cc1ccc(-n2c(N)c(C(N)=O)sc2=S)c(C)c1 | -4% | -5%
CCOc1cccc(C(=O)Nc2ccc(-c3nc4ncccc4o3)cc2C)c1 | -11% | -15%
CCOCC(=O)Nc1cccc(SC)c1 | -10% | -4%
O=C(c1ccncc1)N1CCN(C(=O)c2ccco2)CC1 | 4% | -5%
COc1ccc(C(=O)Nc2ccccc2C(=O)NCc2ccco2)cc1 | -3% | -5%
C=C1CCN([C@@H](C)C(=O)OCc2ccc(C)cc2)S(=O)(=O)c2ccccc21 | u | i
COC(=O)C1C/C(=N\NS(=O)(=O)c2ccc(C)cc2)c2ccsc2C1 (configuration not stated) | -8% | -12%
CS(=O)(=O)N1CCN(c2nc(-c3cccs3)nc3ccccc23)CC1 | -16% | -7%
CCCC(c1nnnn1C1CCCC1)N1CCN(C(=O)c2ccco2)CC1 (configuration not stated) | u | x
CCOC(=O)C1CCN(c2ncnc3c2cnn3-c2ccccc2)CC1 | -6% | -6%
CCCn1c(N)c(C(=O)CSc2nnc3ccccn23)c(=O)n(C)c1=O | -10% | -15%
Cc1ccc(C)c(NC(=O)CN(C)C(=O)c2nn(C)c(=O)c3ccccc23)c1 | -4% | -5%
CCCCCCCN1CCN=C1Nc1ccccc1 | -25% | i
CCOc1ccc2nc(N3CCCC(C(=O)NCc4ccccc4Cl)C3)sc2c1 (configuration not stated) | -9% | -9%
C=CCn1c(=O)c2c(nc3n2CCCN3CCc2ccc(OC)c(OC)c2)n(C)c1=O | -6% | -13%
Cc1ccc(S(=O)(=O)NC(=O)NCc2ccc(Cl)cc2)cc1 | u | -21%
Cc1ccc(C2CC(=O)C(C=NCCN3CCN(C(=S)Nc4ccccc4)CC3)=C(O)C2)cc1 (configuration not stated) | -2% | -4%
CCc1nnc(NC(=O)CSc2nnc(-c3ccoc3C)n2-c2cccc(C)c2)s1 | -5% | -10%
Nc1nc2ccc(C(=O)Nc3ccccc3)cc2s1 | -4% | x
COC(=O)c1cc2c(cc1NC(=O)CSCCc1ccccn1)OCO2 | -1% | x
COc1ccc(C=O)cc1COc1ccccc1F | -20% | -3%
COC1CCCCC1NS(=O)(=O)c1ccc(Cl)cc1 (configuration not stated) | -12% | i
CCc1ccc(N2CC(C(=O)N3CCN(c4ccccn4)CC3)CC2=O)cc1 (configuration not stated) | -12% | -10%
CCCCNC(=O)c1sc2ncnc(NCC3CCCO3)c2c1C (configuration not stated) | 3% | -7%
COc1ccc(NC(=O)CN(C)C(=O)c2cc3c(s2)CCC(C)C3)cc1 (configuration not stated) | -18% | -17%
CCOc1ccccc1NC(=O)c1ccc(S(=O)(=O)N2CCOCC2)cc1 | 5% | x
O=Cc1c[nH]c2ccc(S(=O)(=O)N3CCOCC3)cc12 | -14% | i
O=C(O)COc1ccc(/C=N/NC(=O)C2CCCN2S(=O)(=O)c2ccc(Cl)cc2)cc1 (configuration not stated) | 6% | x
COC(=O)C1CCN(c2cc(Cl)nc(N)n2)CC1 | -1% | -6%
CCCCn1c(N)c(N(CCC(C)C)C(=O)CC2CCCCC2)c(=O)[nH]c1=O | -14% | -17%
